AmpC nodet inh – inhibitors of E. coli AmpC beta-lactamase without detergent; P00811; 71,000 tested, 1.8% active; AmpC nitrocefin hydrolysis, absorbance 480 nm, no detergent; potencies from a single point are estimates; Potency, µM (top dose mostly 28.7 µM), inactives show at the top dose activity change, negative = inhibition; active = falling curve, for most hits resting on a single point; inconclusive = weak or doubtful change; inactive = flat or rising curve; also: % of control where 0% means no effect; about half of the hits show no inhibition at the top dose; a quarter of the inactives give rising signals
Target sequence (P00811 whole entry, looked up): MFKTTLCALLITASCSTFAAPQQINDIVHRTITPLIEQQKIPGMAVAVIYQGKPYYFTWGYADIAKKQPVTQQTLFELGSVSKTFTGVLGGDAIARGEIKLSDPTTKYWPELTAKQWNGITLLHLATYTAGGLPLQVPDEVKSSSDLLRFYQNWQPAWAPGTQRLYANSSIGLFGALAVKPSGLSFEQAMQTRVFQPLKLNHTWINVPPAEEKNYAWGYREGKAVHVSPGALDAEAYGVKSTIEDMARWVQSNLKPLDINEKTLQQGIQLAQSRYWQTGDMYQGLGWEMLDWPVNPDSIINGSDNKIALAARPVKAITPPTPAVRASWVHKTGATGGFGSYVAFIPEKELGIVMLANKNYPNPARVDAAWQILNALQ
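Enzyme, pH 7.0 phosphate. Compound titrations were pre-incubated with AmpC for 15 min at room temperature before nitrocefin (stock 800 uM) addition; product formation was recorded at 480 nm every 20 s for 4 min.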
Starred values were filed as active, the others as inactive; [ ] = another dose, or the depositor's remark. Potency is read from the fitted curve at half-maximal effect.

Cn1c(=O)c2c(nc(CN3CCC(C(N)=O)CC3)n2Cc2c(Cl)cccc2Cl)n(C)c1=O
  AmpC nodet inh = 59%
CCn1cc(C2=NC(C(C)C)CO2)c2ccccc21 (stereo unspecified)
  AmpC nodet inh = 81%
CCOCCc1nnc(NC(=O)c2cccs2)s1
  AmpC nodet inh = -10%
CSc1nsc(SC)c1C(=O)N1CCN(S(=O)(=O)c2ccc(C)cc2)C1C (stereo unspecified)
  AmpC nodet inh = 27%
CCCC(C(=O)NCc1ccc(OC)cc1)N(Cc1ccco1)C(=O)c1snc(C(N)=O)c1N (stereo unspecified)
  AmpC nodet inh = 21%
Oc1cc(Cl)ccc1Cl
  AmpC nodet inh = -14%
CCOC(=O)c1cc2sccc2n1CC(=O)Nc1ccc2c(c1)OCCO2
  AmpC nodet inh = 16%
Cc1c(Cl)cccc1NC(=O)NC1CCCCC1
  AmpC nodet inh = -16%
COCCNC(=O)[C@H](C)/C=C/C(NC(=O)OCc1ccccc1)c1ccc(C(=O)OC)cc1 (stereo partly specified)
  AmpC nodet inh = 121%
Cc1ccc(-c2noc(CCC(=O)NC3CCCc4ccccc43)n2)cc1 (stereo unspecified)
  AmpC nodet inh = 34%
COc1ccccc1CNC(=O)CCN1C(=O)COc2ccc(C)cc21
  AmpC nodet inh = -2%
CC1CCCCN1Cc1nc2c(c(=O)n(C)c(=O)n2C)n1CCc1ccccc1 (stereo unspecified)
  AmpC nodet inh = 71%
Nc1ccc(S(=O)(=O)Nc2ccc(Cl)nn2)cc1
  AmpC nodet inh = -6%[12.8 µM]
COC(=O)[C@@]1(Cc2ccccc2)[C@H]2c3cc(C(=O)N(C)C)n(Cc4ccc(OC)c(OC)c4)c3C[C@H]2CN1C(=O)c1ccccc1
  AmpC nodet inh = 165%
O=S(=O)(NCc1ccncc1)c1ccc(Br)s1
  AmpC nodet inh = 2%

Cc1cc(C)cc(Nc2ccc(C(=O)O)cc2N)c1
  AmpC nodet inh = -9%
COc1ccc(-c2nnc(SCC(=O)N3CCOCC3)o2)cc1OC
  AmpC nodet inh = 6%
Fc1ccccc1CSc1nnnn1-c1ccc2c(c1)OCO2
  AmpC nodet inh = -1%
Cc1cccc(NC(=O)c2cc(NC(=O)c3ccco3)ccc2N2CCCCC2)c1
  AmpC nodet inh = -6%
C[C@@H]1C(=O)O[C@H]2[C@@H](O)[C@@]34[C@H]5C[C@H](C(C)(C)C)[C@@]36[C@H](OC(=O)[C@@H]6O)O[C@@]4(C(=O)O5)[C@@]12O
  AmpC nodet inh = -14%
O=C1C[C@H]2C(=O)[C@@H]1[C@@H](C(=O)O)[C@H]2C(=O)O
  AmpC nodet inh = 6%[5.75 µM]
CC1CCN(C(=O)CSc2ccc3nnc(-c4cccc(F)c4)n3n2)CC1
  AmpC nodet inh = 14%
c1ccc(N2CCN(c3ncnc4scc(-c5cccs5)c34)CC2)cc1
  AmpC nodet inh = 0%
O=C(NCCCN1CCOCC1)c1cc2c(s1)CCCC2
  AmpC nodet inh = -2%
COc1ccc(-c2c(C#N)c(SCc3c(C)noc3C)nc3c2C(=O)CC(C)(C)C3)cc1
  AmpC nodet inh = 21%
Cc1cc(C)c2cc(CN(CC3CCCO3)S(=O)(=O)c3ccc4c(c3)OCCO4)c(=O)[nH]c2c1 (stereo unspecified)
  AmpC nodet inh = 119%
COc1ccccc1CNCc1cccs1
  AmpC nodet inh = -5%
COc1ccc2[nH]c(=O)c(CN(CCO)S(=O)(=O)c3ccc4c(c3)OCCO4)cc2c1
  AmpC nodet inh = 17%
CC(C)OC(=O)CSc1nnc(-c2ccc(C(C)(C)C)cc2)n1N
  AmpC nodet inh = -5%
CCc1ccc(Nc2oc(C)cc(=O)c2C(C)=O)cc1
  AmpC nodet inh = 36%

Cc1cc(Nc2cccc(C(F)(F)F)c2)n2nc(C)nc2n1
  AmpC nodet inh = 19%
Cc1c(Br)cc(C(=O)NCc2ccco2)c(C)c1C
  AmpC nodet inh = 0%
Cn1c(CCN2CCN(c3ccc(F)cc3)CC2)nc2cc(NC(=O)c3ccco3)ccc21
  AmpC nodet inh = 68%
O=Cc1ccccc1
  AmpC nodet inh = -2%
O=C(NCCc1csc(-c2ccccc2)n1)c1cccs1
  AmpC nodet inh = 4%
CCCS(=O)(=O)c1nc(S(=O)(=O)c2ccc(C)cc2)c(NCCN2CCOCC2)s1
  AmpC nodet inh = 125%
CCc1cccc(C)c1NC(=O)CN1C(=O)c2ccccc2S1(=O)=O
  AmpC nodet inh = 10%
CN1/C(=C/C(=O)c2nc(S(C)(=O)=O)ncc2Cl)C(C)(C)c2ccccc21
  AmpC nodet inh = 32%
Cc1ccc(C(C(=O)NC2CCCC2)N(C(=O)c2csnn2)C2CCCC2)o1 (stereo unspecified)
  AmpC nodet inh = 27%
CCN(CC)CCCn1c(C)cc2c(c1=O)C(c1cc(OC)c(OC)cc1OC)C(C#N)=C(N)O2 (stereo unspecified)
  AmpC nodet inh = -10%
CCOC(=O)COn1c(=O)c(-c2cccs2)[n+]([O-])c2ccccc21
  AmpC nodet inh = -9%
CCc1nc2sc3c(c2c(=O)n1N)CCC3
  AmpC nodet inh = -6%
O=c1c(C(c2nnnn2C2CCCCC2)N2CCCCC2)coc2ccc(Cl)cc12 (stereo unspecified)
  AmpC nodet inh = 37%
N#Cc1sc2nc3c(c(-c4ccco4)c2c1N)CCCC3
  AmpC nodet inh = 13µM*[single pt active]
O=C(Cc1c[nH]c2ccccc12)Nc1nc2ccccc2[nH]1
  AmpC nodet inh = 7.9µM*

CCCn1cnc2c(SCc3ccc(Cl)cc3)nc(N)nc21
  AmpC nodet inh = 5%[5.75 µM]
CCCn1c(NCc2cc(C)ccc2O)nc2ccccc21
  AmpC nodet inh = 3%
COC(=O)c1ccccc1NC(=O)C1CCN(C(=O)c2cc(OC)c(OC)c(OC)c2)CC1
  AmpC nodet inh = 110%
Clc1ccc(OCc2nnc(SCc3nnc(-c4ccccc4)o3)o2)c(Cl)c1
  AmpC nodet inh = 46%
Cc1ccc(S(=O)(=O)N2CCN(C(=O)CSc3nnc(C)s3)C2)cc1
  AmpC nodet inh = 12%
O=C(c1cccc(F)c1)N1CCN(CC2CC3C=CC2C3)CC1 (stereo unspecified)
  AmpC nodet inh = 23%
COC(=O)c1cc2oc(C)cc2n1CC(=O)Nc1ccc(C)c(C)c1
  AmpC nodet inh = -16%
Cc1[nH]c2ccc(CNS(=O)(=O)c3ccc(S(=O)(=O)N4CCOCC4)cc3)cc2c1C
  AmpC nodet inh = 20%
O=C(Nc1ccc2c(c1)OCCO2)C1CCN(S(=O)(=O)c2cccc3nsnc23)CC1
  AmpC nodet inh = -11%
[O-]/[N+](=C\c1ccc(OC(F)F)cc1)c1ccccc1
  AmpC nodet inh = -15%
CC1(C)CC(=O)C2=C(C1)NC(=O)CC2c1cc(F)ccc1F (stereo unspecified)
  AmpC nodet inh = -6%
CCOC(=O)CCN(Cc1cccs1)S(=O)(=O)c1ccc(F)cc1
  AmpC nodet inh = -6%
O=C(C1CCCN1C(=O)c1cccs1)N1CCc2ccccc21 (stereo unspecified)
  AmpC nodet inh = -10%
O=C(Cn1nc(C(F)(F)F)c2c1CCCCC2)N1CCOCC1
  AmpC nodet inh = 15%
COc1ccc(N2CCN(C(=O)CCNS(=O)(=O)c3ccc(Br)s3)CC2)cc1
  AmpC nodet inh = 40%

COc1ccc2[nH]c3ccccc3c2c1
  AmpC nodet inh = -8%
COc1ccccc1OC[C@H](O)CN1CCN(CC(=O)Nc2c(C)cccc2C)CC1
  AmpC nodet inh = 42%
COc1ccc(C)cc1N(CC(N)=O)S(=O)(=O)c1ccc(C)cc1
  AmpC nodet inh = 18%
CCOC(=O)C1(Cc2ccccc2)NC(c2ccccc2F)C2C(=O)N(CC)C(=O)C21 (stereo unspecified)
  AmpC nodet inh = 105%
COC(=O)Cc1cnc(NC(=O)C2C3CCC(C3)C2C(=O)O)s1 (stereo unspecified)
  AmpC nodet inh = -6%
COc1ccc(-n2c(=O)cc(N3CCN(c4ccccc4)CC3)[nH]c2=O)cc1
  AmpC nodet inh = 9%
O=C(CCC(=O)N1CCc2ccccc21)Nc1ccccc1
  AmpC nodet inh = 0%
Cc1cc2ncn(S(=O)(=O)N3CCCCC3)c2cc1C
  AmpC nodet inh = 53%
O=C(NC1CCCc2ccccc21)C1CCN(S(=O)(=O)c2cccc3nsnc23)CC1 (stereo unspecified)
  AmpC nodet inh = 9%
O=C1CCC(C(=O)N(Cc2ccco2)C2(C(=O)NC3CCCC3)CCCCC2)N1 (stereo unspecified)
  AmpC nodet inh = 13%
CC(C)C(=O)Nc1ccc(C(=O)N2CCN(C(=O)c3ccco3)CC2)cc1
  AmpC nodet inh = -4%
COc1cc2c(C(=O)N3CCN(C)CC3)c(C)oc2cc1Br
  AmpC nodet inh = 42%
Cc1nn(-c2ccccc2)c2c1C(O)n1c(nc3ccccc31)S2 (stereo unspecified)
  AmpC nodet inh = 9%
CCn1c(=N)n(CC(=O)c2ccco2)c2ccccc21
  AmpC nodet inh = -8%
COc1cc(NC(=O)c2ccc(Br)o2)ccc1NC(=O)c1ccccc1Cl
  AmpC nodet inh = -20%

COCCNC(=O)c1ccc(NS(=O)(=O)c2cc(C)ccc2C)cc1
  AmpC nodet inh = -6%
CCN1C(=S)SC(=O)C1=C1C=C(C)N(CCO)C(C)=C1
  AmpC nodet inh = 11%
CCC(=O)Nc1c2c(nn1-c1ccccc1C)CSC2
  AmpC nodet inh = -10%
O=C(N1CCOCC1)N1CCC(n2nnc3ccccc32)CC1
  AmpC nodet inh = -4%
Nc1nc(SCc2ccccc2)c2ncn(Cc3ccccc3)c2n1
  AmpC nodet inh = -8%[5.75 µM]
Cc1nn(CC(=O)NC(C)c2ccccc2)c(=O)c2ccccc12 (stereo unspecified)
  AmpC nodet inh = 1%
O=C(COc1cccc(OC(F)F)c1)Nc1ccc(SC(F)F)cc1
  AmpC nodet inh = -22%
CCN1C(=O)C(NC(C)=O)c2cc(Br)ccc21 (stereo unspecified)
  AmpC nodet inh = 22%
CCOC(=O)C1CCCN(c2c(NCC3CCCN3CC)c(=O)c2=O)C1 (stereo unspecified)
  AmpC nodet inh = 4µM*[single pt active]
COc1ccccc1NC1=NC(c2ccc(Cl)cc2)N=C(N)N1 (stereo unspecified)
  AmpC nodet inh = -13%
COC(=O)C(CC(C)C)Oc1ccc2c(C)cc(=O)oc2c1 (stereo unspecified)
  AmpC nodet inh = 49%
CCOC(=O)N1CCC(NC(=O)c2ccc3c(=O)n4c(nc3c2)CCCC4)CC1
  AmpC nodet inh = 28%
CCN(CC)CCCNC(CC(=O)O)C(=O)O (stereo unspecified)
  AmpC nodet inh = -1%
O=C(Nc1ccc2c(c1)OCO2)N1CCN(S(=O)(=O)c2ccc(Cl)cc2)CC1
  AmpC nodet inh = -9%
COCCN1C(=O)c2oc3ccccc3c(=O)c2C1c1ccc(O)c(OC)c1 (stereo unspecified)
  AmpC nodet inh = 14%

More structures follow:
Molecule,AmpC nodet inh
N#Cc1nc(COc2ccc(Cl)cc2Cl)oc1N1CCOCC1,54%
O=C(NCc1cccnc1)c1cc(-c2ccccc2)on1,4%
COc1ccc2c(c1)C13CCCC[C@@H]1C(C2)N(C)CC3 (stereo partly specified),-4%[12.8 µM]
Cc1ccc2ccccc2c1[N+](=O)[O-],-8%
COc1cccc(-n2nnnc2SCC(=O)c2cc(OC)ccc2OC)c1,0%
COc1ccc(Nc2nc(N)nc(SCc3nnc(C)s3)n2)cc1,-7%
Cc1ccccc1NS(=O)(=O)c1ccc(F)cc1,-4%
COc1ccc(-c2nnc(SCC(=O)/C(C#N)=C(\C)N)o2)cc1,2%
COc1cc(-c2nn3c(Cc4ccccc4)nnc3s2)cc(OC)c1OC,56%
CCOC(=O)c1ccccc1NC(=O)c1cn(CC)c2nc(C)ccc2c1=O,0%
COCCNC(=O)C(C)OC(=O)c1cc2occc2n1C (stereo unspecified),8%
COc1cccc(-c2nnc(SCC(=O)Nc3cc(C)ccc3OC)n2N)c1,3%
COc1ccc(NC(=O)N2CCCC3(CCN(C(=O)c4cccn4C)CC3)C2)cc1,24%
Cc1cc(NC(=O)COn2nnc3ccc(Cl)cc32)no1,-22%
COC(=O)COc1ccc(S(=O)(=O)Nc2ccccc2C(=O)OC)cc1,18%
Cc1ccc2nc(N3CCOCC3)c3nncn3c2c1,0%
Cn1c(SCC(=O)Nc2ccc(F)cc2)nnc1-c1cccnc1,-4%
COC(=O)c1c(C)[nH]c(C(=O)COC(=O)Cc2ccc3c(c2)OCCO3)c1C,45%
Cn1c(CNc2ccccn2)c(C#N)c2ccccc21,-9%
COc1ccc(C2C(C(N)=O)=C(C)Nc3nc(-c4ccccc4Cl)nn32)c(OC)c1 (stereo unspecified),45%
COC(=O)[C@@]1(Cc2ccc(F)cc2)[C@H]2c3cc(C(=O)N(C)C)n(Cc4ccc(OC)c(OC)c4)c3C[C@H]2CN1C(=O)c1ccccc1,164%
O=C(NCc1ccco1)C(c1cccnc1)N(C(=O)Cn1nnc2ccccc21)c1ccccc1 (stereo unspecified),29%
COc1cc(C2C3=C(Nc4ncnn42)c2ccccc2CC3)cc(OC)c1OC (stereo unspecified),99%
COC(=O)C1=C(C)N=C2SCCC(=O)N2C1c1ccc(C(=O)OC)cc1 (stereo unspecified),44%
Cc1ccc(CNc2cc(-c3nn4c(C)nnc4s3)ccc2C)s1,69%
CNCC[C@H](Oc1ccccc1C)c1ccccc1,2%
CCOc1nc(Nc2ccc(-c3nc4ccccc4o3)cc2)nc(N2CCOCC2)n1,83%
Cc1cc(Cl)ccc1OCC(=O)Oc1c(Cl)c(Cl)c(Cl)c(Cl)c1Cl,-8%[5.75 µM]
C=CCn1c(C)cc(C(=O)COc2ncnc3sccc23)c1C,22%
Cc1oc2c(O)c(O)ccc2c(=O)c1-c1cnn(-c2ccccc2)c1,-7%

Not all compounds are listed. The share of hits here may be higher or lower than overall.
